NS1 inh = inhibitors of influenza NS1 protein function; S. cerevisiae slowed by influenza A NS1, growth recovery by OD600; Potency, µM (series often up to 46.1 µM), inactives show at the top dose activity, positive = more growth; 270,000 compounds, 0.4% hits; AID 2326; further: actives are rising curves; nearly all actives have a fitted effect of over 50% in size
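S. cerevisiae expressing influenza A NS1, grown in glucose, washed, then diluted 1:100 into pH 6.0 -URA galactose medium with 23 nl compound. Growth recovery read as OD600; NS1-free strain serves as control.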
Cruzain inh noDet = inhibitors of Trypanosoma cruzi cruzain without detergent; purified cruzain, Z-FR-AMC fluorescence, no detergent; Potency, µM, without a hit: max response, negative = inhibition, hits mostly inhibitors; 200,000 compounds, 2.3% hits; active means well fitted curve in the direction sought with a large enough effect; inconclusive means small, poorly fitted or top-dose-only effect, or another doubt; inactive means no such curve, though single readings can be large; an effect the other way counts as inactive or inconclusive;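 further: plate controls were enzyme without inhibitor for no effect and buffer without enzyme for full effect; nearly all actives have a fitted effect of over 40% in size; top concentration of the series not given in the record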
Target sequence (P25779 123-467 limits assumed): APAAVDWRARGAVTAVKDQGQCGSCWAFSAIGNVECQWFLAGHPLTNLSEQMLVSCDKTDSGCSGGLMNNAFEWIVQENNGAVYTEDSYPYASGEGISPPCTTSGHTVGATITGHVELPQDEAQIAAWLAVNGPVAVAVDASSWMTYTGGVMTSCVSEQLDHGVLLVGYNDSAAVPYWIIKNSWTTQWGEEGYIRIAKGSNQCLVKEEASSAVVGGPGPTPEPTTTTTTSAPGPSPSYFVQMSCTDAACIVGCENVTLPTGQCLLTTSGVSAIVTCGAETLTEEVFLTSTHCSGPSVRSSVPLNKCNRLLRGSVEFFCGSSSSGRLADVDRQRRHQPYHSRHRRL
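Purified cruzain at 1.5 nM, pre-incubated 15 min with compound at room temperature in 100 mM sodium acetate pH 5.5, 5 mM DTT, 0.00005% Triton X-100. Reaction started with 2 uM Z-FR-AMC; AMC fluorescence increase over 60 s gives rate.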
RE007 growth inh = less growth of the S. pombe RE007 Vpr strain | S. pombe RE007 Vpr strain, BacTiter-Glo ATP luminescence, 24 h; control for the full effect not named in the record | Potency, µM (titrated, usually from 92.2 µM), without a hit: top-dose activity change, negative = less growth | 360,000 compounds, 0.21% hits | AID 651644; active = well fitted falling curve with a large enough effect; inconclusive = small, poorly fitted or top-dose-only effect; inactive = no such curve, though single readings can be large or run the other way;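 further: on the % scale 0 is the no-effect control and ±100 the full control effect; nearly all actives have a fitted effect of over 50% in size; the assay follows cell death caused by Vpr and the record does not say whether a fall means rescue or toxicity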
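Fission yeast strain RE007, carrying one chromosomally integrated HIV-1 vpr copy, was seeded at OD 0.01 in PMG+AL medium with 23 nL pinned compound. After 24 h at 30 °C and 99% humidity, viability was read by BacTiter-Glo luminescence.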
SARS PLP yeast = inhibitors of SARS-CoV papain-like protease in yeast; Potency, µM (titrated, usually from 32.9 µM), for inactives: at the highest dose activity, positive = growth rescue; 330,000 compounds, 0.19% hits; S. cerevisiae expressing SARS-CoV PLpro, growth rescue; control for the full effect not named in the record; further: 0% is about no effect; nearly all actives have a fitted effect of over 55% in size; growth read by luminescence after 48 h
Marburg entry inh = blocks Marburg virus binding to or entry into cells; Marburg virus pseudotyped entry inhibition, cell reporter; control for the full effect not named in the record; about a third of the inactives were read at about 46 µM; Potency, µM (highest dose often 37.8 µM), for the others: at the top dose activity change, negative = inhibition, actives largely listed as inhibitors; 300,000 compounds, 1.8% hits; AID 540276; active = well fitted inhibition curve with a large enough effect; inconclusive = small, poorly fitted or top-dose-only effect, or effect the other way; inactive = flat fitted curve, though single readings scatter; tested in HEK293 cells; about a fifth of its hits are not listed in these tables; further: on the % scale 0 is the no-effect control and ±100 the full control effect; luciferase read-out
StopGo reporter = FMDV 2A StopGo reporter, luciferase signal. human cells with a luciferase reporter of 2A StopGo recoding; control for the full effect not named in the record. Potency, µM (top dose mostly 57.9 µM), inactives show at the top dose signal change, negative = less light. 410,000 compounds, 1.2% hits; active = well fitted falling curve with a large enough effect; inconclusive = small, poorly fitted or top-dose-only effect; inactive = no such curve, though single readings can be large or run the other way; tested in HEK293T cells; further: on the % scale 0 is the no-effect control and ±100 the full control effect; nearly all actives have a fitted effect of over 45% in size; luciferase light after 4 h
Lassa entry inh = Lassa virus entry inhibition. 300,000 compounds, 1.2% hits. Lassa virus pseudotype entry inhibition, cell reporter; control for the full effect not named in the record. AID 540256. Potency, µM (titrated, usually from 37.9 µM), inactives show at the top dose activity change, negative = inhibition, most hits filed as inhibitors; active means well fitted inhibition curve with a large enough effect; inconclusive means small, poorly fitted or top-dose-only effect, or effect the other way; inactive means flat fitted curve, though single readings scatter; tested in HEK293 cells; further: on the % scale 0 is the no-effect control and ±100 the full control effect; nearly all actives have a fitted effect of over 50% in size; luciferase read-out
Cruzain Triton = cruzain (T. cruzi) inhibition with detergent; P25779; purified cruzain, Z-FR-AMC fluorescence, 0.01% Triton; Potency, µM, for inactives: max response, negative = inhibition, hits mostly inhibitors; 200,000 compounds, 0.43% hits; active means well fitted curve in the direction sought with a large enough effect; inconclusive means small, poorly fitted or top-dose-only effect, or another doubt; inactive means no such curve, though single readings can be large; an effect the other way counts as inactive or inconclusive;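 further: plate controls were neutral wells for no effect and buffer without enzyme for full effect; nearly all actives have a fitted effect of over 40% in size; top concentration of the series not given in the record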
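Detergent-containing arm of a paired screen for aggregation-based inhibition: 0.01% Triton X-100 present. Cruzain at 1.5 nM cleaved 2 uM Z-FR-AMC at pH 5.5 with 5 mM DTT; AMC fluorescence gain over 60 s measured activity.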
* marks the source's active call; other numbers are inactive results; u = inconclusive; x = no result given; & = joins results of further samples; [ ] = another dose, or the depositor's remark. Unless noted, the call rests on the fitted dose curve; in most records, active means well fitted rising curve with a large enough effect; inconclusive means small, poorly fitted or top-dose-only effect; inactive means no such curve, though single readings can be large or run the other way. Potency means the concentration at half of the fitted maximal effect.

SMILES | NS1 inh | Cruzain inh noDet | RE007 growth inh | SARS PLP yeast | Marburg entry inh | StopGo reporter | Lassa entry inh | Cruzain Triton
CCOC(=O)c1cn(Cc2ccccc2)c2cc(C)nn2c1=O | 5.8% | x | 0.3% | 0.2% | 21.4% | -12.3% | 16.1% | x
Cc1cc2ncn(C3CC(O)C(CO)O3)c2cc1C (stereo not drawn) | x | x | 9.3% | x | 5.3%[46.1 µM] | 3.0% | 10.3%[46.1 µM] | x
COc1ccc(-c2nn(CCC(=O)O)cc2/C=C2\SC(N)=NC2=O)cc1OC | 14.4% | 2.8% | -18.4% | -9.0% | u | -0.4% | 2.5% | -3.9%
O=C(Cn1nc(C(F)(F)F)c2c1CCCCC2)N1CCOCC1 | -4.5% | 8.5% | 4.7% | 2.8% | 26.2%[46.1 µM] | -6.9% | 11.8% | 2.8%
CC1CCCCN1CC(=O)Nc1ccc2c(c1)OC(F)(F)O2 (stereo not drawn) | x | x | -12.8% | -3.4% | u | 2.1% | -2.9%[46.1 µM] | x
CC(=O)N1c2ccc(S(=O)(=O)N3CCCC3)cc2CC1C(=O)NCc1ccc(OC(C)C)cc1 (stereo not drawn) | -0.6% | x | 8.3% | 1.2% | -12.5%[46.1 µM] | -7.5% | 9.1%[46.1 µM] | x
COc1cc(C(=O)Nc2nnc(Cc3ccccc3)s2)cc(OC)c1OC | 3.4% | x | 18.6% | 0.6% | u | -26.6% | u | x
Clc1ccc(OCc2nnc(SCc3nnc(-c4ccccc4)o3)o2)c(Cl)c1 | -1.4% | u | 4.1% | -23.0% | -30.4% | 21.7% | u | -1.4%
Cc1ccc(CNC(=O)C23CN(Cc4ccccc4)CC2C(c2ccc([N+](=O)[O-])cc2)=NO3)cc1 (stereo not drawn) | 20.7% | u | 2.6% | -1.8% | 0.1% | -0.6% | x | -1.0%
CCCCC(CC)CNCc1cccn1CCN1CCOCC1 (stereo not drawn) | 0.7% | x | 3.0% | 4.4% | x | -3.9% | x | x
Cc1ccc(S(=O)(=O)N2CCN(C(=O)CSc3nnc(C)s3)C2)cc1 | -1.4% | 1.4% | -10.9% | 4.5% | x | -18.6% | x | 7.3%
COC(=O)c1ccccc1NC(=O)C1CCN(C(=O)c2cc(OC)c(OC)c(OC)c2)CC1 | -8.4% | 16.1% | -12.5% | -5.3% | -0.4%&-0.4% | -9.2% | -28.1% | -1.8%
C#CCSc1nc2sc3c(c2c(=O)n1Cc1ccccc1)CCCC3 | x | -9.4% | x | x | x | 4.7% | -14.1%[46.1 µM] | -3.4%
CCCCN(C)S(=O)(=O)c1ccc(NC2=NS(=O)(=O)c3ccccc32)cc1 | x | 6.4% | x | x | -5.5%[46.1 µM] | 8.6% | 17.8%[46.1 µM] | -1.9%
CCOC(=O)c1c(NC(=O)CSc2nccn2C)sc(C(=O)NC)c1C | x | x | 3.0% | -1.1% | 13.2%[46.1 µM] | -7.5% | 14.0% | x
Cn1c(=O)n(C)c2cc([N+](=O)[O-])c(N3CCN(C(=O)c4ccccc4)CC3)cc21 | -10.8% | 13.3% | -1.2% | -2.2% | u | -13.5% | -15.3% | -4.0%
O=C(c1cccc(F)c1)N1CCN(CC2CC3C=CC2C3)CC1 (stereo not drawn) | u | -5.4% | -1.3% | 2.0% | u | -28.9% | -4.9% | 5.2%
Cc1ccccc1NC(=O)Nc1c(C)n(C)n(-c2ccccc2)c1=O | 5.9% | x | 1.7% | -1.8% | 10.2% | -14.2% | 11.0% | x
Cc1ccc(CNC(=O)CSc2nc3ccsc3c(=O)n2-c2ccc(C(=O)O)cc2)cc1 | x | -1.2% | x | x | x | 0.0% | -3.0%[46.1 µM] | 1.0%
CCOc1ccc(/C(CCC(=O)O)=N/NC(=S)NCCc2ccccc2)cc1 | 2.8% | x | 9.7% | u | u | -9.9% | 14.1% | x
Cc1[nH]c2ccc(CNS(=O)(=O)c3ccc(S(=O)(=O)N4CCOCC4)cc3)cc2c1C | 9.2% | 0.1% | 17.9% | 7.4% | u | x | u | -1.6%
O=C(Nc1ccc2c(c1)OCCO2)C1CCN(S(=O)(=O)c2cccc3nsnc23)CC1 | -1.3% | -20.8% | 21.4% | -2.1% | -1.6% | -25.1% | -3.3% | -3.0%
O=C(CN1CCN(Cc2ccccc2F)C1=O)NCC1CCCO1 (stereo not drawn) | 6.9% | x | 3.6% | -0.2% | x | -13.1% | x | x
COC(=O)c1cc2oc(C)cc2n1CC(=O)Nc1ccc(C)c(C)c1 | -11.2% | -26.5% | 1.0% | -1.8% | 1.2% | 48.3% | u | -8.3%
Clc1ccc(-n2c(Cc3ccccc3)nnc2SCc2nc(-c3cccs3)no2)cc1 | x | 12.6% | x | x | -28.4%[46.1 µM] | -18.5% | u | -9.9%
O=C(/C=C/c1ccc([N+](=O)[O-])cc1)N1CCN(S(=O)(=O)c2ccccc2)CC1 | x | x | 3.2% | 3.1% | 20.5% | u | -5.5% | x
c1ccc2nc3c(cc2c1)CCCCCC3 | -8.3% | -1.7% | -15.9% | -7.1% | 1.0% | -1.4% | 25.2% | 1.2%
CC(C)NC(=O)C(=O)NCCc1ccc(Cl)cc1 | -9.4% | -3.3% | -26.2% | 4.0% | u | -13.2% | 1.7% | 1.1%
O=c1c2ccc([N+](=O)[O-])cc2ncn1Cc1ccccc1C(F)(F)F | 4.2% | x | -8.1% | 2.2% | 0.8%[46.1 µM] | -14.5% | -6.8% | x
CN1/C(=C\C(=O)C[n+]2cccc(Br)c2)C(C)(C)c2ccccc21 | 0.2% | x | 2.8% | -0.7% | -0.9% | u | u | x
CCc1c(C(=O)NN2C(=O)C3CCCCC3C2=O)csc1C (stereo not drawn) | 0.1% | 1.7% | 11.0% | 5.3% | 16.6% | 18.2% | 19.6% | -0.4%
CCc1cc2c(N3CCN(C(=O)c4ccco4)CC3)ncnc2s1 | -3.9% | x | 2.9% | -1.1% | -23.6% | -28.8% | u | x
CCN(CC)CCCn1c(C)cc2c(c1=O)C(c1cc(OC)c(OC)cc1OC)C(C#N)=C(N)O2 (stereo not drawn) | 6.6% | 2.7% | 6.5% | -0.8% | 13.6% | -24.7% | 2.6% | 0.0%
COc1cc(/C=C/C2=NNC(=O)CC2)cc(OC)c1OC | -4.3% | x | 6.6% | 0.4% | -7.0%[46.1 µM] | 3.0% | 12.9%[46.1 µM] | x
O=C(CSC(=S)N1CCSCC1)c1ccccc1 | x | x | -3.6% | 2.7% | u | 6.2% | -29.9% | x
NC(=O)N/N=C/c1cn(-c2ccccc2)nc1-c1ccccc1 | x | x | -29.9% | -4.0% | 16.2%[46.1 µM] | 46.1%[activator] | 1.5% | x
CC(C)(C)N(NC(=O)OCc1ccccc1)C(=O)c1ccccc1 | 2.8% | -3.7% | -7.9% | -10.2% | u | -4.2% | u | 1.4%
Cc1nc2ccc(S(=O)(=O)N(CC(=O)Nc3cccc(C)c3C)Cc3ccccc3)cc2s1 | x | -6.6% | x | x | x | -14.6% | 14.9%[46.1 µM] | -1.0%
Cc1ccccc1C(=O)Nc1ccccc1NC(=O)c1ccccc1Br | 0.1% | x | 13.0% | 1.6% | -11.8% | -18.8% | -3.1% | x
COCCCn1c(C(=O)Nc2ccc3c(c2)OCO3)cc2c(=O)n3ccccc3nc21 | 0.1% | x | -4.8% | 0.1% | x | -14.6% | x | x

Structural class, the compounds so far containing a furan ring, fused or not
SMILES | NS1 inh | Cruzain inh noDet | RE007 growth inh | SARS PLP yeast | Marburg entry inh | StopGo reporter | Lassa entry inh | Cruzain Triton
COC(=O)c1cc2oc(C)cc2n1CC(=O)Nc1ccc(C)c(C)c1 | -11.2% | -26.5% | 1.0% | -1.8% | 1.2% | 48.3% | u | -8.3%
CCc1cc2c(N3CCN(C(=O)c4ccco4)CC3)ncnc2s1 | -3.9% | x | 2.9% | -1.1% | -23.6% | -28.8% | u | x

Later entries.
SMILES | NS1 inh | Cruzain inh noDet | RE007 growth inh | SARS PLP yeast | Marburg entry inh | StopGo reporter | Lassa entry inh | Cruzain Triton
COc1cc(NC(=S)N2CCN(C(=O)c3ccco3)CC2)c(OC)cc1Cl | 18.6% | 10.0% | -15.0% | 2.8% | 10.6% | -9.3% | -2.1% | -1.1%
CCOC(=O)COn1c(=O)c(-c2cccs2)[n+]([O-])c2ccccc21 | -145.0% | -7.2% | -7.9% | -2.1% | 18.8% | 17.7% | 0.8% | -2.2%
O=C(NCCc1cnc[nH]1)c1ccc(-c2ccccc2)cc1 | -0.8% | x | 11.8% | 0.8% | x | 17.1% | x | x
CCc1nc2sc3c(c2c(=O)n1N)CCC3 | -84.1% | 7.2% | -4.8% | -12.1% | -0.6% | 11.4% | 11.6% | 2.1%
O=C(Cc1c[nH]c2ccccc12)Nc1nc2ccccc2[nH]1 | 11.2µM* | 25.1µM* | 1.4% | 0.0% | -21.9% | 43.0%[activator] | 16.9% | -25.9%
Cc1ccccc1C(=O)NCCCc1ccccc1 | -21.0% | -2.0% | 1.3% | 2.5% | u | 44.1%[activator] | u | -3.2%
N#Cc1sc2nc3c(c(-c4ccco4)c2c1N)CCCC3 | -5.3% | -10.2% | 9.9% | -19.6% | u | u | -12.9% | -4.8%
CCCn1cnc2c(SCc3ccc(Cl)cc3)nc(N)nc21 | -6.2% | -7.2% | 14.8% | x | u | -18.1% | 6.2% | -1.3%
Cc1ccc(C)c(NC(=O)C(Cc2ccccc2)n2cccc2)c1 (stereo not drawn) | x | 3.5% | x | x | u | -14.3% | x | -8.4%
O=c1c(C(c2nnnn2C2CCCCC2)N2CCCCC2)coc2ccc(Cl)cc12 (stereo not drawn) | -32.3% | 1.8% | -15.3% | -4.8% | u | 13.5% | -13.2% | -0.7%
NC(=O)C1(C(N)=O)OC1c1ccc(Cl)c(Cl)c1 (stereo not drawn) | -2.9% | x | 29.7% | -4.3% | x | -19.7% | x | x

High-throughput results (PubChem)

This is a random part of the collection; 4.8% or so of the library scored in one or more.
